Source: PubChem
VDR inh: blocks the human vitamin D receptor | 0.93% of 400,000 active | AID 504847 | Potency, µM, for the others: max response, negative = inhibition, hits mostly inhibitors | VDR-SRC2-3 peptide fluorescence polarization, 2 h; active means well fitted inhibition curve with a large enough effect; inconclusive means small, poorly fitted or top-dose-only effect, or another doubt; inactive means no such curve, though single readings can be large or run the other way; further: series mostly up to about 120 µM
Target sequence (P11473 whole entry, looked up): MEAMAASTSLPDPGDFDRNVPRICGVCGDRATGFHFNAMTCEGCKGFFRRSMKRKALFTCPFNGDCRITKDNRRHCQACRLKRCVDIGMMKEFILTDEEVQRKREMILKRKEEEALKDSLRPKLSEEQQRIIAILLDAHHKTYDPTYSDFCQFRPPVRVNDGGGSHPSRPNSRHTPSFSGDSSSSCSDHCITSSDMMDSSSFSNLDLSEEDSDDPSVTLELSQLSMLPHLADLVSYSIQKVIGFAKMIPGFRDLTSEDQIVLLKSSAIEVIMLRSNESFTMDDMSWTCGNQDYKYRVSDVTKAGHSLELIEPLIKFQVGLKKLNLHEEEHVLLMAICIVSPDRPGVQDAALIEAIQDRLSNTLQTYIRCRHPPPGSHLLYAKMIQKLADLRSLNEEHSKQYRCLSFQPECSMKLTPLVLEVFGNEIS
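Fluorescence polarization assay measuring small-molecule disruption of VDR binding to the coregulator peptide SRC2-3. Compounds were pin-transferred (23 nl) into the reagent mix and incubated 2 h at room temperature before reading.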
Active calls of the source: *; ? = inconclusive; & = joins results of further samples; [ ] = another dose, or the depositor's remark. On the % scale 0 is the no-effect control and ±100 the full control effect; potency means the concentration at half of the fitted maximal effect. Only part of the results is shown (hit frequency here may not be typical).

Start of the data: the first 3 entries, ahead of the listing:
SMILES	VDR inh
Cn1c(NC(=O)C2CCCC2)cc(=O)n(C)c1=O	3.1%
O=c1c2cc(Br)ccc2nc(-c2ccc(Cl)cc2)n1O	7.2%
COc1ccc(CC(=O)Nc2ccc(-c3noc(-c4ccc(Cl)cc4)n3)cc2)cc1	7.7%

The whole of this part (from the top)
SMILES	VDR inh
Cn1c(NC(=O)C2CCCC2)cc(=O)n(C)c1=O	3.1%
O=c1c2cc(Br)ccc2nc(-c2ccc(Cl)cc2)n1O	7.2%
COc1ccc(CC(=O)Nc2ccc(-c3noc(-c4ccc(Cl)cc4)n3)cc2)cc1	7.7%
Cc1ccc(F)cc1NC(=O)N1c2ccccc2NC(=O)CC1C (centres undefined)	7.0%
O=C(CCN1C(=O)c2ccccc2C1=O)C1=NN[C@@H]2C(=O)N(c3cccc(Cl)c3)C(=O)[C@H]12	5.4%
Cc1cc(-c2ccc(C(C)C)c(S(=O)(=O)N3CCOc4ccccc43)c2)on1	19.4%
O=[N+]([O-])c1cc(Br)cc(/C=N/n2cnnc2)c1O	-15.2%
CCOC(=O)C1CCCCN1Cc1ccc(-c2ccccc2)cc1 (centres undefined)	-7.5%
CC(C)C(=O)Nc1c(C(=O)N2CCN(c3ccccc3F)CC2)oc2ccccc12	1.1%
Cc1ccc(NC(=S)NCCC2=CCCCC2)cc1	-6.5%
CCOC(=O)CSc1nc2ccc(NC(=O)c3ccc(F)cc3)cc2s1	-5.5%
O=[N+]([O-])c1cccc(CN2C(COCc3ccccc3)CCC=CS2(=O)=O)c1 (centres undefined)	-13.4%
CC(C)(C)c1ccc(CN2N=C(/C=C/c3ccccc3)CCC2=O)cc1	0.5%
O=C(CCCN1C(=O)c2ccccc2C1=O)N1CCCCC1	1.5%
O=C(Cc1ccc([N+](=O)[O-])cc1)NCc1ccc2c(c1)OCO2	-3.4%
CC(NC(=O)c1cccs1)C(c1cccs1)N1CCN(c2ccccc2)CC1 (centres undefined)	16.2%
Cc1cnc(NC(=O)c2cc3c(s2)CCCC3)s1	7.9%
C=C(C)Cn1c(-c2ccc(OC)cc2)nc2ccccc21	-12.2%
CC1(C)COCN1C(=O)c1ccc(Cl)c(Cl)c1	-5.5%
CCC(=O)n1nc(-c2cccnc2)nc1NCc1ccc(F)cc1	-9.5%&10.3%
C[C@@H](O)C1NC(=O)[C@H](CCCCN)NC(=O)c2cc([N+](=O)[O-])cc(F)c2NCCCC[C@@H](C(N)=O)NC1=O (some centres undefined)	2.0%
Cn1cc(SCC(=O)O)c2ccccc21	-0.1%
O=C(CNC(=O)c1ccc(Cl)cc1Cl)OCc1nc2ccccc2s1	7.7%
COc1ccc(C(=O)COc2ccc3ccc(=O)oc3c2)cc1	-15.8%
O=C(CNC(=O)c1ccc(Br)o1)NNC(=O)c1n[nH]c(=O)c2ccccc12	-0.7%
CC(C)(O)C#Cc1ccc(C(=O)NC(CCCNC(N)=O)C(=O)O)s1 (centres undefined)	3.1%
O=C(O)CC(Cn1[nH]nnc1=S)c1ccccc1 (centres undefined)	-7.8%
Cc1cc(C)c2c(c1)cc(C)c1nnc(SCC(=O)Nc3ccccc3N3CCOCC3)n12	-18.3%
NC(=O)CC(NC(=O)c1cccc(Br)c1)c1ccc(NCC2CC2)c([N+](=O)[O-])c1 (centres undefined)	2.2%
COc1ccc(-c2nc3cnccn3c2Nc2ccc3c(c2)OCO3)cc1	19.8%
O=C(CCCCCn1c(=S)[nH]c2ccc(N3CCOCC3)cc2c1=O)NCc1ccc2c(c1)OCO2	-1.0%
COc1cc(C(=O)NCc2ccc(F)cc2)cc(Cl)c1OC	-10.0%
Cc1cccc(CS(=O)(=O)Cc2ccc(C(=O)NC(C)c3ccccc3)o2)c1 (centres undefined)	-2.9%&0.8%
O=C(Nc1ccc2c(c1)OCO2)C1CCN(c2ccc(S(=O)(=O)N3CCOCC3)cc2)CC1	-9.0%
CCOc1ccc(N2CC(C(=O)Nc3cccc(S(=O)(=O)NC4=NCCC4)c3)CC2=O)cc1 (centres undefined)	-14.8%
CC(C)CC(=O)Nc1ccc2c(c1)oc1ccccc12	6.8%

Single values from the results shown.
Result for CC(C)CC(=O)Nc1ccc2c(c1)oc1ccccc12 under VDR inh: 6.8%
Result for COc1ccc(-c2nc3cnccn3c2Nc2ccc3c(c2)OCO3)cc1 under VDR inh: 19.8%

Following part:
SMILES	VDR inh
CCCCNC(=O)c1onc(CSc2cccc(OC)c2)c1C(=O)O	?
CCOc1cc(C(F)(F)F)cnc1/C(N)=N/O	-6.8%
COc1ccc(C(=O)c2ccccc2C(=O)c2ccccc2)cc1	-8.6%
O=C(O)C1C2C=CC3(O2)C1C(=O)N1c2ccccc2COC13 (centres undefined)	10.9%
COc1ccc(C2(C)NC(=O)N(CC(=O)NCCC3=CCCCC3)C2=O)cc1OC (centres undefined)	-15.5%
Cc1ccccc1C(=O)NNC(=S)NC(=O)c1cccnc1	-8.0%
Cc1ccc(Cl)cc1NC(=O)Cn1nc(-c2cccs2)ccc1=O	18.5%
COc1cc2c(cc1OC)C(=Cc1ccc(N(C)C)cc1)C=C2	-2.4%
COc1cc(/C=C2\C(=N)N3N=C(S(C)(=O)=O)SC3=NC2=O)ccc1OS(=O)(=O)c1ccc(C)cc1	?
CS(=O)(=O)c1ccc2nc(NC(=O)c3cccc([N+](=O)[O-])c3)sc2c1	7.6%
CCN(CC(=O)NCc1ccc(F)cc1)C(=O)/C=C/c1ccc(OC)cc1	6.7%
C/C=C/C(=O)OCC(=O)Nc1cc([N+](=O)[O-])ccc1Cl	-13.9%
Cc1ccc(S(=O)(=O)N2CCN(C(=O)N3CCOCC3)CC2)cc1C	-2.8%
C[C@H](CO)N1C[C@H](C)[C@@H](CN(C)C(=O)Nc2ccc(C(F)(F)F)cc2)Oc2c(cccc2N(C)C)C1=O	-6.7%
COc1ccc(S(=O)(=O)Nc2ccc(F)c(F)c2)cc1Cl	-12.5%
C[C@@H]1NC(=O)c2cc([N+](=O)[O-])cc(I)c2OCC[C@@H](C(=O)NC(CC(=O)O)C(N)=O)NC(=O)[C@H](CC(N)=O)NC1=O (some centres undefined)	-18.8%
CC(=O)NC(c1cc(Cl)c2ccccc2c1O)C(C)C (centres undefined)	-3.1%
Cc1ccc(NC(=O)c2cnc(SCC(=O)N3CCOCC3)n(C)c2=O)cc1	4.8%
Cc1ccccc1OCC(=O)Nc1ccc(S(=O)(=O)N(Cc2ccccc2)c2ccccc2)cc1	-8.0%
CCN1CCN(C(c2ccc(C(F)(F)F)cc2)c2ccc3cccnc3c2O)CC1 (centres undefined)	25.1µM*
CC[C@H](C)[C@H](NC(N)=O)C(=O)Nc1ccc2c(c1)OCO2	-3.4%
NC(=O)Cn1cc(C(=O)C(=O)N2CCOCC2)c2ccccc21	-5.4%
Cc1cc(/C=C2\C(=O)NN(c3ccccc3)C2=O)c(C)n1-c1ccccc1O	-14.8%
COc1ccc2[nH]c(=O)c(CNc3ccccc3C)cc2c1	?
Cc1ccc(CCNC(=O)C2CCN(C(=O)c3sccc3-n3cccc3)CC2)cc1	6.9%
CSc1ccccc1C(=O)NC1CC2CCC1C2 (centres undefined)	4.2%
CN(C)c1ncnc2c1ncn2C1OC(CO)C(O)C1O (centres undefined)	5.5%
COc1cccc(C(=O)/C=C/Nc2ccc(S(=O)(=O)Nc3ccc(C(C)=O)cc3)cc2)c1	-28.3%
CCc1c(C)nc2nc(-c3ccccc3)nn2c1NCc1ccc(C)cc1	-1.9%
COc1cccc(N2C(=O)C(CC(=O)Nc3ccc(F)cc3)N(C3CCCCC3)C2=O)c1 (centres undefined)	-5.4%
CCc1noc(C)c1C(=O)OCC(=O)Nc1ccccc1SC	2.2%
Brc1ccc(-c2nnc3sc(CN4CCCCC4)cn23)cc1	11.5%
CC1CC(=O)c2cnc(NCC3CCCO3)nc2C1 (centres undefined)	10.2%
O=C(NCC(c1cccs1)N1CCOCC1)c1cn(-c2ccccc2)nc1-c1ccc(F)cc1 (centres undefined)	9.4%
CCCCCn1ccc(=O)c2c(C(F)(F)F)nccc21	6.5%
O=C(Nc1nnc(-c2ccccc2)o1)NC1CCCCC1	-7.6%
COc1ccccc1NC(=O)C1=C(C)Nc2c(C(=O)Nc3ccc(F)cc3)cnn2C1c1cccc([N+](=O)[O-])c1 (centres undefined)	-2.5%
CCOc1nc(SCCOc2ccccc2)nc(N(C)C)n1	-2.8%
COCCN1CCN(c2c(C)c(C)nc3cc(-c4cccc(OC)c4)nn23)CC1	18.5%
CCOC(=O)C1=C(C)N=c2s/c(=C\c3cccn3C)c(=O)n2C1c1cccc(OC)c1OC (centres undefined)	14.5%
O=C(Nc1ccc(N2CCOCC2)cc1)C1CC(O)CN1S(=O)(=O)c1ccc(Cl)cc1 (centres undefined)	5.9%
CC1=C(C(=O)NCc2cccc(Br)c2)C2(CCCCC2)OC1=O	4.4%
Cc1ccc(C(NC(=O)N2CC(C)OC(C)C2)C(Cl)Cl)cc1F (centres undefined)	2.7%
CCn1cc(-c2cc(C(=O)O)on2)c(C)n1	3.4%
CC(=O)c1cc(C(=O)N2CCCC(CCC(=O)N(C)CCc3ccccn3)C2)cs1 (centres undefined)	30.7%[activator]
Cc1ccc(NC(=O)CSc2ccc(-c3sc(-c4ccccc4)nc3C)nn2)cc1F	10.2%
CCc1cc2c(SCC(=O)NC3CCS(=O)(=O)C3)ncnc2s1 (centres undefined)	13.9%
CCCCN=C1NN=C(c2cccc([N+](=O)[O-])c2)CS1	?
CC(C)CNC(=O)c1cccc(NC(=O)CSc2ccccc2)c1	-12.0%
COc1cc(C(=O)NC(C)C2CC3CCC2C3)ccc1OC(F)F (centres undefined)	-10.4%
CCCOc1ccc(C(=O)OCC(=O)NCCc2ccc(OCC)c(OCC)c2)cc1OC	-1.0%
CCOC(=O)COc1ccc(Cl)cc1C1NC(=O)NC(C)=C1C(C)=O (centres undefined)	16.4%
CC(C)CN(C(=O)COC(=O)CNC(=O)c1sc2ccccc2c1Cl)C1CCS(=O)(=O)C1 (centres undefined)	-8.0%
Cc1ccc(-n2ncc3c(N4CCN(C)CC4)ncnc32)cc1C	12.1%
O=C1CC(C(=O)Nc2ccccc2)S/C(=N\NC(=O)c2ccccc2Cl)N1 (centres undefined)	0.4%
Cc1cc(=O)[nH]c(N/N=C/c2ccc(Cl)c([N+](=O)[O-])c2)n1	7.9%
FC(F)Oc1ccc(-c2csc(Cc3nnc4n3CCCCC4)n2)cc1	12.7%
CCOc1ccc(NC(=O)CN(C)Cc2ccc3c(c2)OCO3)cc1S(=O)(=O)N1CCCC1	5.1%
FC(F)(F)Sc1ccc(NC(=S)NCc2ccccc2)cc1	-15.5%
O=C(c1cc2c(=O)[nH]c3ccccc3c2s1)N1CCN(c2ccc(F)cc2)CC1	1.2%

The list continues.
SMILES	VDR inh
COc1ccc(N2CCN(S(=O)(=O)c3c(C)[nH]c(C)c3C(=O)N3CCCCC3)CC2)cc1	-5.4%
Cc1ccc(C(C)(C)NC(=O)C2CCC(=O)N(CC3CCCCC3)C2)cc1 (centres undefined)	-25.4%
N#Cc1ccc(OCC(=O)NCCc2ccc(S(N)(=O)=O)cc2)cc1	-2.2%
O=C(CN1C(=O)COc2ccc(S(=O)(=O)N3CCOCC3)cc21)Nc1cccc(Cl)c1	-16.9%
COc1ccccc1C(=O)N1CCN(c2cccc(Cl)c2)CC1	-17.8%
O=[N+]([O-])c1cc(-c2nc(-c3ccccc3)no2)ccc1NC1CCCC1	17.4%
COC(=O)C1(CCSC)NC(c2ccc(O)cc2)C2C(=O)N(c3ccc4c(c3)OCCO4)C(=O)C21 (centres undefined)	-3.4%
CCOc1ccc(Nc2oc(/C=C/c3ccc(F)cc3)nc2C#N)cc1	6.8%
Cc1ccc(-n2nc3c(=O)n(CC(=O)NC(C)C)nc(C)c3c2C)cc1	0.2%
CCC(C)NC(=O)CN1C(=O)NC2(CCOc3ccccc32)C1=O (centres undefined)	7.1%
S=P(c1ccc(N2CCOCC2)cc1N1CCOCC1)(N1CCOCC1)N1CCOCC1	79.4µM*
COc1ccc(/C=C/C(=O)N(C)C2CCS(=O)(=O)C2)cc1 (centres undefined)	14.9%

Sorted by the number under VDR inh (rising): 6 from the list above.
| canonical_smiles | VDR inh |
| --- | --- |
| Cc1ccc(C(C)(C)NC(=O)C2CCC(=O)N(CC3CCCCC3)C2)cc1 (centres undefined) | -25.4% |
| COc1ccccc1C(=O)N1CCN(c2cccc(Cl)c2)CC1 | -17.8% |
| O=C(CN1C(=O)COc2ccc(S(=O)(=O)N3CCOCC3)cc21)Nc1cccc(Cl)c1 | -16.9% |
| COC(=O)C1(CCSC)NC(c2ccc(O)cc2)C2C(=O)N(c3ccc4c(c3)OCCO4)C(=O)C21 (centres undefined) | -3.4% |
| N#Cc1ccc(OCC(=O)NCCc2ccc(S(N)(=O)=O)cc2)cc1 | -2.2% |
| CCOc1ccc(Nc2oc(/C=C/c3ccc(F)cc3)nc2C#N)cc1 | 6.8% |

Further compounds
SMILES	VDR inh
CC1=NN(c2ccccc2)C(=O)/C1=C\c1cn(C)c2ccccc12	-15.1%
CC(=O)Nc1c2c(nn1-c1ccc(F)cc1)CSC2	-21.6%
CCCn1c(SCC(=O)Nc2ccc(Cl)cn2)nnc1C1CC1	4.3%
Cc1ccccc1NC(=O)c1cccnc1	-6.7%
N#Cc1c(SCC(=O)O)nc(N2CCOCC2)c2c1CCCC2	3.4%
COc1ccccc1N/N=C1\COC(C)(C)CC1=O	13.2%
CC(=O)c1c(C)[nH]c(C(=O)Nc2ccc(C)c(S(=O)(=O)Nc3ccc(C)cc3C)c2)c1C	-8.9%
COc1ccc(NC(=O)C2CCN(C(=O)c3cccs3)CC2)cc1OC	-4.4%
CCOc1cc(CN2CCCC(N3CCN(c4ccc(F)cc4)CC3)C2)ccc1OC (centres undefined)	3.1%
COc1ccc(NC(=O)c2csnn2)cc1	13.9%
Cc1nc(NS(=O)(=O)c2cccc([N+](=O)[O-])c2)sc1C(C)(C)C	-11.4%
CCCN1C(=O)C2(c3ccccc31)c1c(oc3ccccc3c1=O)C(=O)N2CCO (centres undefined)	15.0%
